High-throughput results as filed in PubChem BioAssay.
MITF inh: blocks MITF activity. TRPM1 promoter luciferase, luminescence, 24 h. inhibition, % (test concentration not listed). hit rate 0.28% among 37,000. AID 2240;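 active means most replicates at 85% or more, or half of them and the mean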;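 further: human melanocyte line stably carrying TRPM1 promoter luciferase reporter; 0% = vehicle wells and 100% = a positive control; the first replicate is given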
* hit, by the source's call. An excerpt; rates above refer to the full screens.

Preview (20 entries):
SMILES	MITF inh
Cc1c(C#N)c2ccccc2n1CC(=O)NCCc1c[nH]c2ccccc12	29
CN(c1cccc(NS(=O)(=O)c2ccc3c(c2)OCCO3)c1)S(C)(=O)=O	36
Cc1cc(OCC(=O)Nc2ccccc2C(=O)N2CCCCC2)c(C)cc1Br	20
COc1ccc(-c2nc(SCc3cc(Cl)ccc3OC)n[nH]2)cc1	21
Cc1ccc(-c2nc3ccccc3s2)cc1NC(=O)COc1ccc(Cl)cc1	-19
CN(Cc1nc(-c2ccncc2)no1)S(=O)(=O)c1ccccc1	-10
O=c1c2ccccc2nc(CSc2nnc(-c3ccco3)n2-c2ccccc2)n1-c1ccccc1Cl	-1
CCCc1cc(=O)[nH]c(SCC(=O)Nc2ccc3c(c2)OCCO3)n1	-11
Cc1sc2ncnc(SCC(=O)Nc3ccc(-c4nc5ccccc5s4)cc3)c2c1C	-49
COc1ccc(C)c(Cn2c(-c3nonc3N)nc3ccccc32)c1	53
Nc1cccc(-c2nnc(SCC(=O)c3ccc(F)cc3)n2-c2ccccc2)c1	-3
CCc1ccc(C(Nc2ccccn2)c2ccc3ccc(C)nc3c2O)cc1 (stereo not drawn)	33
O=C(CNS(=O)(=O)c1ccc(Cl)cc1)Nc1ccc(I)cc1	8
COC(=O)c1c(NC(=O)c2ccc(Cn3cc(Cl)cn3)cc2)sc2c1CCC2	7
O=C(CCCOc1ccc(Cl)cc1Cl)Nc1ccc2c(c1)C(=O)NC2=O	-14
Cc1sc2ncnc(SCC(=O)Nc3ccc(C(N)=O)cc3)c2c1C	-27
Cc1ccc(OCC(=O)Nc2ccc3oc(-c4cccc(F)c4)nc3c2)c(C)c1	-59
Cn1cnnc1SCc1nc2ccc([N+](=O)[O-])cc2[nH]1	-2
Cc1ccc2nsnc2c1S(=O)(=O)NCc1ccncc1	1
COC(=O)c1ccccc1NC(=O)CSc1nccc(C)n1	1

Results (from the top)
SMILES	MITF inh
Cc1c(C#N)c2ccccc2n1CC(=O)NCCc1c[nH]c2ccccc12	29
CN(c1cccc(NS(=O)(=O)c2ccc3c(c2)OCCO3)c1)S(C)(=O)=O	36
Cc1cc(OCC(=O)Nc2ccccc2C(=O)N2CCCCC2)c(C)cc1Br	20
COc1ccc(-c2nc(SCc3cc(Cl)ccc3OC)n[nH]2)cc1	21
Cc1ccc(-c2nc3ccccc3s2)cc1NC(=O)COc1ccc(Cl)cc1	-19
CN(Cc1nc(-c2ccncc2)no1)S(=O)(=O)c1ccccc1	-10
O=c1c2ccccc2nc(CSc2nnc(-c3ccco3)n2-c2ccccc2)n1-c1ccccc1Cl	-1
CCCc1cc(=O)[nH]c(SCC(=O)Nc2ccc3c(c2)OCCO3)n1	-11
Cc1sc2ncnc(SCC(=O)Nc3ccc(-c4nc5ccccc5s4)cc3)c2c1C	-49
COc1ccc(C)c(Cn2c(-c3nonc3N)nc3ccccc32)c1	53
Nc1cccc(-c2nnc(SCC(=O)c3ccc(F)cc3)n2-c2ccccc2)c1	-3
CCc1ccc(C(Nc2ccccn2)c2ccc3ccc(C)nc3c2O)cc1 (stereo not drawn)	33
O=C(CNS(=O)(=O)c1ccc(Cl)cc1)Nc1ccc(I)cc1	8
COC(=O)c1c(NC(=O)c2ccc(Cn3cc(Cl)cn3)cc2)sc2c1CCC2	7
O=C(CCCOc1ccc(Cl)cc1Cl)Nc1ccc2c(c1)C(=O)NC2=O	-14
Cc1sc2ncnc(SCC(=O)Nc3ccc(C(N)=O)cc3)c2c1C	-27
Cc1ccc(OCC(=O)Nc2ccc3oc(-c4cccc(F)c4)nc3c2)c(C)c1	-59
Cn1cnnc1SCc1nc2ccc([N+](=O)[O-])cc2[nH]1	-2
Cc1ccc2nsnc2c1S(=O)(=O)NCc1ccncc1	1
COC(=O)c1ccccc1NC(=O)CSc1nccc(C)n1	1
O=C(Nc1ccccc1C(=O)NCC1CCCO1)c1ccco1 (stereo not drawn)	-12
COc1ccc(F)cc1S(=O)(=O)Nc1ccncc1	-7
O=C(CCn1cnc2ccccc2c1=O)Nc1cccc(C(F)(F)F)c1	1
O=C(CSc1nnc(-c2ccncc2)n1-c1ccccc1)Nc1ccnc2ccccc12	32
Cc1c(Cl)cccc1NC(=O)CSC1CC(=O)N(c2ccccc2)C1=O (stereo not drawn)	-4
O=C(CSc1nccc(=O)[nH]1)Nc1cccc(Br)c1	-7
CCN(CC(=O)Nc1cccc(Cl)c1)S(=O)(=O)c1ccc(Br)cc1	10
O=C(Cn1c(-c2ccccn2)nc2ccccc21)NCCN1CCOCC1	-11
O=C(O)c1cc(NC(=O)C2CC=CCC2C(=O)O)ccc1Cl (stereo not drawn)	0
COC(=O)c1ccccc1NC(=O)COc1cc(C)c(Br)c(C)c1	-6
COc1ccccc1CCNC(=O)c1cc(-c2ccc(C)o2)nc2ccccc12	-3
CS(=O)(=O)N(CC(=O)Nc1ccc(Oc2ccccc2)cc1)c1ccc2c(c1)OCCO2	-73
COc1ccccc1C1C(C(=O)c2ccco2)C(=O)C(=O)N1c1cc(C)on1 (stereo not drawn)	14
C=CCn1c(=O)c(C(=O)NCc2ccccn2)c(O)c2ccccc21	-31
COc1cc(S(=O)(=O)NCC2CCCO2)c(OC)cc1Cl (stereo not drawn)	-4
O=C(O)CCCC(=O)Nc1cc(C(=O)O)ccc1Cl	-3
COc1ccc(NC(=O)CSc2c(C)n[nH]c2C)cc1	10
COc1ccc(OCC(=O)Nc2ccc(-c3nc4ccc(C)cc4o3)cc2)cc1	36
Cc1cccc(OCC(O)Cn2cnc3cc(C)c(C)cc32)c1 (stereo not drawn)	37
COc1ccc(-c2nc3ccccc3s2)cc1NC(=O)COc1cc(C)ccc1C(C)C	10
CCOC(=O)c1c(NC(=O)CSc2nc(C)nc3sc4c(c23)CCC4)sc(C)c1C	-14
CC(C(=O)Nc1cccc(Br)c1)N(c1ccc(Cl)cc1)S(C)(=O)=O (stereo not drawn)	23
CCn1c(SCC(=O)Nc2cccc(Br)c2)nnc1-c1ccc(C)cc1	46
O=C(CN1C(=O)COc2ccc(Cl)cc21)Nc1ccc(N2CCOCC2)cc1	-7
O=C1CC(CSc2nnnn2-c2ccccc2)=NN1	-15
O=C(CSc1n[nH]c(-c2ccccc2Cl)n1)c1ccc(O)c(O)c1	-19
O=C(NCc1cccnc1)C1CC(c2ccc(Cl)c(Cl)c2)=NO1 (stereo not drawn)	12
COc1cc(NC(=O)CSc2nnc(C)s2)cc(OC)c1OC	4

Two entries drawn at random from those above:
SMILES	MITF inh
COc1cc(NC(=O)CSc2nnc(C)s2)cc(OC)c1OC	4
O=C1CC(CSc2nnnn2-c2ccccc2)=NN1	-15

The list continues:
SMILES	MITF inh
CC(C)(C)c1ccc(OCC(=O)N(c2ccccn2)C2CCCCC2)cc1	14
COc1ccc(-n2c(C)c(C(C)=O)c3cc(OCC(N)=O)ccc32)cc1	-19
COC(=O)Cc1c(C)nc2nc(COc3ccccc3)[nH]n2c1=O	-8
CCN(CC)c1nc(Nc2ccccc2)nc(Oc2ccc(=O)[nH]n2)n1	1
O=[N+]([O-])c1nn(-c2ccccc2)n(O)c1=NC1CCN(Cc2ccccc2)CC1	62
COc1cccc(OC)c1C(=O)Nc1cccc(-c2nc3ncccc3o2)c1	-18
CCOC(=O)C1CCCCN1Cc1cccc(OC)c1OC (stereo not drawn)	-7
COCCNS(=O)(=O)c1cc([N+](=O)[O-])ccc1C	-18
Cc1cc(NS(=O)(=O)c2ccc(NS(=O)(=O)c3cccs3)cc2)nc(C)n1	-23
Cc1ccc(-c2nnc(SCC(=O)Nc3ccc(Br)c(C)c3C)o2)cc1	48
CCCc1cc(=O)oc2cc(OCC(=O)Nc3ccc4c(c3)OCCO4)ccc12	-23
Cc1ccc(N(C(=O)COc2ccc(C)cc2C)C2C=CS(=O)(=O)C2)cc1 (stereo not drawn)	-22
Cc1cccc(OCC(=O)Nc2cccc(C(=O)Nc3ccccc3C(=O)O)c2)c1	6
COC(=O)c1ccc(NC(=O)C(C)N(c2ccc(C)c(C)c2)S(C)(=O)=O)cc1 (stereo not drawn)	0
COC(=O)c1ccc(C(=O)OC)c(NC(=O)COc2ccc(I)cc2)c1	-7
CCn1c(SCC(=O)Nc2cccc(F)c2)nnc1-c1ccc(OC)cc1	41
CC(=O)c1ccc(NC(=O)COc2ccccc2C(=O)Nc2ccccc2)cc1	-24
CC(NS(=O)(=O)c1cc(Cl)ccc1Cl)C(=O)Nc1cccc([N+](=O)[O-])c1 (stereo not drawn)	9
CCOC(=O)c1sc(NC(=O)c2cc(-c3ccccn3)nc3ccccc23)c(C(=O)OCC)c1C	8
COc1cc(NC(=O)CSc2ncnc3sc(C)c(C)c23)cc(OC)c1	5
COc1ccccc1NC(=O)c1c(NCc2ccc(C)o2)sc2c1CCC2	4
CCN(CC(=O)Nc1ccc(C(F)(F)F)cc1)S(=O)(=O)c1ccc2ccccc2c1	22
O=C(Nc1ccc(I)cc1C(=O)NCCN1CCOCC1)c1ccco1	2
Cc1ccccc1OC(C)C(=O)Nc1ccccc1C(N)=O (stereo not drawn)	7
COc1ccc(NC(=O)CCN2CCc3ccccc3C2)c(OC)c1	15
COc1ccc(C)cc1NC(=O)CN(c1ccc(F)c(Cl)c1)S(C)(=O)=O	-7
Cc1sc2ncnc(NCCCN3CCOCC3)c2c1-c1ccccc1	-2
CN(C(=O)CSc1nnc(-c2ccc(Cl)cc2)n1-c1ccccc1)c1ccccc1	-21
Nc1nnc(SCC(=O)Nc2ccccc2Br)s1	-6
c1ccc(OCc2nc3ccccc3n2Cc2ccccn2)cc1	-54
CN(C)CCNc1nc2c(c(=O)n(C)c(=O)n2C)n1Cc1ccccc1F	-10
CC(=O)c1ccc(OC(=O)CCCN2C(=O)c3ccccc3C2=O)cc1	-14
COc1ccc(C(=O)NCCCn2ccnc2)cc1[N+](=O)[O-]	7
Nc1nc(SCC(=O)Nc2cccc(C(F)(F)F)c2)n[nH]1	-1
Cc1ccc(S(=O)(=O)NC(C)(C)CSc2nncn2C)cc1	-6
COc1ccc2nc(SCC(=O)Nc3ccc(F)c(Cl)c3)[nH]c2c1	-4
O=C(CSc1nnc(-c2ccncc2)o1)c1cc2ccccc2oc1=O	21
COc1cccc(OCc2nc(-c3ccc(OC)c(OC)c3)no2)c1	-18
Cc1ccc(N)c(C(=O)CCCCC(=O)O)c1	-16
c1ccc(CC(Cc2nc3ccccc3[nH]2)c2nc3ccccc3[nH]2)cc1 (stereo not drawn)	8
COc1ccccc1NC(=O)c1c(NC(=O)c2ccco2)sc(C)c1C	-72
COc1ccc(-c2noc(CN(C)S(=O)(=O)c3ccccc3)n2)cc1OC	-22
O=c1cc(-c2ccccc2)nc(SCc2nc3ccccc3c(=O)[nH]2)[nH]1	32
CC(=O)c1ccccc1OC(=O)CCN1C(=O)C2C3c4ccccc4C(c4ccccc43)C2C1=O (stereo not drawn)	-15
Cc1sc(NC(=O)c2cc(-c3cccnc3)nc3ccccc23)c(C(=O)NC2CCCCC2)c1C	9
O=C(Cc1ccccc1[N+](=O)[O-])Nc1ccccc1C(=O)N1CCCC1	-22
CC(=O)c1ccc(NC(=O)CN(C)S(=O)(=O)c2ccccc2)cc1	-54
COc1ccc(-n2c(SCC(=O)c3cccc([N+](=O)[O-])c3)nnc2-c2ccc(Cl)cc2)cc1	8
Cc1ccc(S(=O)(=O)NCCNc2ccc([N+](=O)[O-])cc2)cc1	10
COc1ccccc1NC(=O)CCSc1nnc(-c2ccco2)o1	-7
O=C(CSc1nnc2c(n1)[nH]c1ccccc12)NCc1ccccc1	26
CCN(CC(=O)Nc1ccc(Cl)cc1C)S(=O)(=O)c1ccc(C)cc1	-3
Cc1ccc(N(C(C)C(=O)Nc2cc([N+](=O)[O-])ccc2C)S(C)(=O)=O)cc1 (stereo not drawn)	0
O=C(COc1cc(Cl)c(Cl)cc1Cl)Nc1cccnc1	-20
COc1cc(Cl)c(C)cc1NC(=O)CSc1nnc(-c2ccncc2)n1C	-10
COc1ccc(NC(=O)CSc2nc3sc4c(c3c(=O)n2-c2ccccc2)CCCC4)c([N+](=O)[O-])c1	-5
CCNS(=O)(=O)c1ccc(NC(=O)c2cc(-c3ccccn3)nc3c(C)c(C)ccc23)cc1	26
COc1cc(S(=O)(=O)NCc2ccccn2)ccc1Br	-8
Cc1nc(SC(C(=O)c2ccccc2)c2ccccc2)nc2c1CCCC2 (stereo not drawn)	20
Cn1cc(CNC(=O)c2cc(-c3ccncc3)nc3ccc(Br)cc23)cn1	-3
Additional entries
SMILES	MITF inh
COc1ccc([N+](=O)[O-])cc1NC(=O)C1(c2ccc(OC)c(OC)c2)CCOCC1	-2
O=C(CSC1CC(=O)N(c2ccc(Cl)cc2)C1=O)Nc1cccc(F)c1 (stereo not drawn)	-2
Cc1cc(NC(=O)C(=O)NCc2cccnc2)ccc1Br	-63
CN(C)CCNc1oc(COc2ccc(F)cc2)nc1C#N	-10
Cc1ccc(Nc2nc(Oc3ccc(=O)[nH]n3)nc(N3CCOCC3)n2)cc1	-114
CC(=O)Nc1ccc(NC(=O)CC2C(=O)Nc3ccccc3N2C(C)=O)cc1 (stereo not drawn)	9
Cc1[nH]c2ccccc2c1C(=O)CSc1nc2ccccc2[nH]1	-61
CC(NS(=O)(=O)c1ccc(F)cc1)C(=O)Nc1ccccc1F (stereo not drawn)	-2
Cc1cc(OCC(=O)Nc2cccnc2)ccc1[N+](=O)[O-]	-8
Oc1c(C(Nc2ccccn2)c2cccc(F)c2)cc(Cl)c2cccnc12 (stereo not drawn)	57
Cc1ccc(C)c(NC(=O)CCC(=O)O)c1	-6
COc1cc(NC(=O)C(C)Oc2cccc(Cl)c2)c(C(=O)O)cc1OC (stereo not drawn)	6
CCNc1nc(SC(C)C(=O)Nc2ccccc2)nc(N2CCOCC2)n1 (stereo not drawn)	4
COc1ccc(S(=O)(=O)N(C)CC(=O)Nc2cccc(C(F)(F)F)c2)cc1Cl	15
COc1ccc(C(=O)Nc2ccccc2C(=O)OCc2cccc([N+](=O)[O-])c2)cc1	7
Cc1nc([N+](=O)[O-])c(NCCO)n1Cc1ccccc1	6
CC1=C(C(=O)OC(C)C)C(c2ccccc2[N+](=O)[O-])n2ncnc2N1 (stereo not drawn)	-11
CCC(Oc1cccc(NC(=O)c2ccccc2[N+](=O)[O-])c1)C(=O)c1ccccc1 (stereo not drawn)	13
COc1ccc(OCC(=O)Nc2cc(OC)ccc2NC(=O)c2ccco2)cc1	2
COc1ccc(-c2csc3ncn(CC(N)=O)c(=O)c23)cc1OC	2
CCc1ccccc1NC(=O)Cn1cnc2scc(-c3ccc(OC)cc3)c2c1=O	27
COc1ccc(S(=O)(=O)NCCc2ccc(OC)c(OC)c2)cc1C	-15
